CtBP-E1A blk – CtBP/E1A binding inhibition; AlphaScreen GST-E1A/His-CtBP binding, 1536-well; hits give low values; control for the full effect not named in the record; activity change, % (no concentration beside the values); 340,000 compounds, 0.49% hits; AID 651724; in the data active means activity change below about -65%; inconclusive means about -30% to -65%; inactive means above about -30%; further: on the % scale 0 is the no-effect control and ±100 the full control effect
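Homogeneous bead-based format: GST-tagged E1A captured on glutathione donor beads, His-tagged CtBP on nickel acceptor beads; compounds precede bead addition by 2 h at 37 °C.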
gsp agonist – activates gsp, the McCune-Albright syndrome mutation; gsp mutant cells, cAMP HTRF, 30 min; control for the full effect not named in the record; Potency, µM (series often up to 76.9 µM), for the others: at the highest dose activation (cAMP increase), most hits filed as activators; 340,000 compounds, 0.13% hits; active = well fitted activation curve with a large enough effect; inconclusive = small, poorly fitted or top-dose-only effect, or another doubt; inactive = no such curve, though single readings can be large or run the other way; cell line not stated here;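 further: phosphodiesterase inhibitor Ro 20-1724 added with compounds to block cAMP breakdown; potency means the concentration at half of the fitted maximal effect; nearly all actives have a fitted effect of over 60% in size; about a fifth of the inactives were tested at one dose only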
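Cells in DMEM/10% FBS with G418 were pretreated with compounds in DMSO plus […] (300 uM stock) for 30 min at 37C. cAMP was measured by HTRF (cAMP-d2 plus anti-cAMP antibody-K) after 30 min at room temperature.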
Menin-MLL FL inh – menin-MLL binding inhibition, fluorescein peptide; FP activity change, % at 61.4 µM; Fluorescence polarization, fluorescein-MLL peptide displacement from menin; 290,000 tested, under 10 active; inconclusive = falling polarisation curve, or a change in total fluorescence; inactive = total fluorescence flat and polarisation flat or rising; no compound was filed as active; the % refers to the polarisation; negative = inhibition;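 further: % of control where 0% means no effect; inhibitors lower the polarisation; unlabelled MLL peptide was the positive control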
TRPV1 potentiator – potentiators of human vanilloid receptor 1 (TRPV1); Q8NER1; TRPV1-expressing cells, Fluo-8 calcium influx, capsaicin EC20 potentiation; host cell line not named in the record; control for the full effect not named in the record; potentiation, % at 8.33 µM; 320,000 compounds, 0.02% hits; AID 540277; active means potentiation above 80%; inconclusive means 30% to 80%; inactive means below 30%; further: 0% is about no effect
Target sequence (Q8NER1 whole entry, looked up): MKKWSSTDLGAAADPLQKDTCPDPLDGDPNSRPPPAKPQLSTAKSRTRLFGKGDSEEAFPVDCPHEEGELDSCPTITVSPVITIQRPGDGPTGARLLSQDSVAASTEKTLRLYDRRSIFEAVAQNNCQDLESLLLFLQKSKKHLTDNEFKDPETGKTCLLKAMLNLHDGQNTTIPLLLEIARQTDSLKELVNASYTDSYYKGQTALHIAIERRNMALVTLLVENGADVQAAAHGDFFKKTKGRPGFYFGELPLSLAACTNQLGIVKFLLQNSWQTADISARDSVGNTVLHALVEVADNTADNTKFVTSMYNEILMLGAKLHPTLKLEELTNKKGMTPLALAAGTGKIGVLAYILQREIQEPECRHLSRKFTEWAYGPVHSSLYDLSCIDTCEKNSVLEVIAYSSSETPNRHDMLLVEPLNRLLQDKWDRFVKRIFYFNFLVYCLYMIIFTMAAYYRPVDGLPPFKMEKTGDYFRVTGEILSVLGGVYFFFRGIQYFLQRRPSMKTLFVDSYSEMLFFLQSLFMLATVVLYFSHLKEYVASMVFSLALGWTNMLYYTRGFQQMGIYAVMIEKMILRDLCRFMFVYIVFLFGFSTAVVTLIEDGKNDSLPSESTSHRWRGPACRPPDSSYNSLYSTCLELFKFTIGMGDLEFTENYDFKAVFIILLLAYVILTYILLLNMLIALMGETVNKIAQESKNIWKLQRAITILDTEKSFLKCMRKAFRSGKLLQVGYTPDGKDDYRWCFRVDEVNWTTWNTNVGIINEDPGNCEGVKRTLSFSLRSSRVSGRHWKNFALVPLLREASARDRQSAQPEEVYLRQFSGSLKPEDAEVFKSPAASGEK
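Cells expressing TRPV1 were dye-loaded with Fluo-8 and read kinetically: 10 s baseline, 3 min after compound (agonist portion), then 2 min after EC20 capsaicin (allosteric enhancer portion). Calcium-bound dye fluorescence at 480/520 nm.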
Sfp PPTase inh – inhibitors of Bacillus subtilis Sfp phosphopantetheinyl transferase; AID 1490; Biochemical Sfp PPTase activity, qHTS; Potency, µM, inactives show max response, negative = inhibition, most hits filed as inhibitors; Q9F4F7; 310,000 compounds, 3.5% hits; active means well fitted inhibition curve with a large enough effect; inconclusive means small, poorly fitted or top-dose-only effect, or another doubt; inactive means no such curve, though single readings can be large or run the other way;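 further: the enzyme is Sfp with the accession as filed and its product quenches rhodamine fluorescence; potency means the concentration at half of the fitted maximal effect; 0% = enzyme reaction without inhibitor and -100% = no enzyme wells; top concentration of the series not given in the record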
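Sfp 15 nM + cpd, 15 min RT; start w/ rhodamine-CoA 5 uM, BHQ-2-YbbR 12.5 uM (final); 50 mM Hepes pH 7.6, 10 mM MgCl2, 0.01% NP-40, 0.01% BSA; read 525/598 nm at 0 and 30 min.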
ClpP mod – qHTS Assay for Activators of ClpP. purified B. subtilis ClpP, FRET peptide cleavage, 20 min. Potency, µM (top dose mostly 57.5 µM), for the others: at the highest dose activity change, negative = active. 340,000 compounds, 1.9% hits. AID 651965, 2013; active = well fitted falling curve with a large enough effect; inconclusive = small, poorly fitted or top-dose-only effect; inactive = no such curve, though single readings can be large or run the other way; further: potency means the concentration at half of the fitted maximal effect; the source files actives as falling curves though it sought activators and does not explain the sign; nearly all actives have a fitted effect of over 65% in size; many hits overshoot -100%
Target sequence (P80244 whole entry, looked up): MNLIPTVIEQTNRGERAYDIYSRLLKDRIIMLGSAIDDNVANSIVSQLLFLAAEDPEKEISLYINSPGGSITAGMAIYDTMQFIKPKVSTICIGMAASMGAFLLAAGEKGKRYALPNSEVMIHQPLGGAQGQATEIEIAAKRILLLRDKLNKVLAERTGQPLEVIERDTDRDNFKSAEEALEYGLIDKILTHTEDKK
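ClpP 10 microg/mL final, pH 8 Tris/KCl buffer with BSA, glycerol, Tween-20; compound pinned in; FRET-FV substrate; RT 20 min; Ex320/Em430; ΔFRET vs ADEP 5.8 microM, DMSO, no enzyme.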
gsp antag – gsp mutant antagonism | gsp-mutant cells, cAMP HTRF, 30 min; control for the full effect not named in the record | Potency, µM (top dose mostly 76.9 µM), inactives show top-dose activity change, negative = inhibition, most hits filed as inhibitors | 340,000 compounds, 0.4% hits | AID 624288; active = falling curve of any shape with a large fitted effect; inconclusive = falling curve, mostly with a smaller effect; inactive = flat or rising curve; cell line not stated here;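 further: intracellular cAMP measured with PDE inhibitor Ro 20-1724 present during compound exposure; potency means the concentration at half of the fitted maximal effect; on the % scale 0 is the no-effect control and ±100 the full control effect; nearly all actives have a fitted effect of over 65% in size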
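Cells in G418 medium, seeded 16-24 h, 37C; buffer exchange to DPBS + 1 mM CaCl2, 0.5 mM MgCl2, 0.05% BSA; cpds in DMSO + […] (300 uM stock), 30 min 37C; HTRF cAMP detection.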
Numbers without * were called inactive; ? = inconclusive; · = not tested or not shown; [ ] = dose if it differs, or a comment.

Sequence of screens: ClpP mod	gsp antag	Menin-MLL FL inh	gsp agonist	TRPV1 potentiator	CtBP-E1A blk	Sfp PPTase inh
COc1ccc(/C=N/NC(=O)CSc2nnc(C)n2-c2ccccc2)c(OC)c1OC
→ 1.2%	-21%	2.7	6%	-6	0	1%
CCOc1ccc(NC(=O)CN(C)C(=O)c2sccc2-c2ccccc2)cc1OCC
→ -3.7%	-6%	·	-3%	?	0	·
CC(/C=N/Nc1nnc(C)c(=O)[nH]1)=C\c1ccccc1
→ -0.8%	-11%	1.2	13%	-2	9	?
COc1ccccc1C=CC(=O)C=Cc1ccccc1OC
→ 28µM*	-15%	·	-39%[inhibitor]	·	0	·
COc1cc2c(cc1OC)CN(c1ccc([N+](=O)[O-])cc1C#N)CC2
→ -0.6%	-20%	1.8	18%	0	-30	9%
CCOC(=O)C1CCN(C(=O)c2ccc(NS(=O)(=O)c3ccc4[nH]c(=O)[nH]c4c3)cc2)CC1
→ -0.6%	4%	·	-14%	·	·	·
Cc1ccc(-c2nc(C#N)c(NCCCn3ccnc3)o2)cc1
→ ·	5%	-3.4	-7%[15.4 µM]	-2	-7	-4%
O=C(CCc1c[nH]c2ccccc12)NC(Cc1ccccc1)C(=O)O (configuration not stated)
→ -10%	12%	-3.6	3%	-7	-17	13%
C[C@@H]1CN([C@@H](C)CO)C(=O)c2cc(Br)cnc2O[C@H]1CN(C)S(=O)(=O)c1ccccc1
→ -2.6%	·	·	?	·	2	·
CSc1nc(O)c(C(c2ccc(C)cc2)c2c(O)nc(SC)[nH]c2=O)c(=O)[nH]1
→ -2.3%	6%	-2.3	?	?	·	-2%
CCOc1ccc(C2=Nn3c(nnc3-c3ccc(OC)cc3)SC2)cc1
→ -0.5%	0%	-0.5	-9%	5	-4	0%
COc1ccc(CCN=C2SCC(=O)N2C)cc1OC
→ 0.2%	9%	1.6	27%	0	11	10%
COC(=O)CC1=C(C(=O)OC)C(c2ccc3c(c2)OCO3)C(C#N)=C(N)O1 (configuration not stated)
→ ·	-7%	3.2	1%[15.4 µM]	0	-2	20%
COc1cccc(Cn2c(OCC3CCCO3)nc3c2c(=O)n(C)c(=O)n3C)c1 (configuration not stated)
→ -2.1%	6%	-0.6	-51%[inhibitor]	-1	-6	-5%
CCOC(=O)c1cccc(NC(=O)CN2C(=O)C3C4C=CC(C4)C3C2=O)c1 (configuration not stated)
→ -1.8%	14%	-0.1	14%	13	0	26%
CCSc1nnc2c(Cl)cc(Cl)cn12
→ -0.3%	6%	-0.6	-30%	15	-1	15%
COc1cc(C(C)=NNC(=O)c2ccncc2)ccc1O
→ 1.1%	10%	·	-4%[15.4 µM]	·	0	·
Cc1ccc(OCCOC(=O)Cn2nc(C)c([N+](=O)[O-])c2C)cc1
→ -1.2%	2%	0.1	22%	2	-2	10%
COC(=O)c1c(NC(=S)Nc2ccc(F)cc2[N+](=O)[O-])sc2c1CCCCC2
→ 0.6%	-18%	-2.9	18%[15.4 µM]	-1	-7	14µM*
Cc1ccccc1N1C(=O)CC1(C#N)c1ccc(OCc2ccccc2)cc1 (configuration not stated)
→ -0.9%	7%	14	-19%[15.4 µM]	4	8	-4%
O=C(Nc1cc(S(=O)(=O)N2CCOCC2)ccc1O)c1ccc(S(=O)(=O)N2CCCCC2)cc1
→ -0.2%	8.9µM*	·	-7%	·	·	·
O=C(NCc1ccccc1)C1CCN(c2nc(-c3ccccc3)nc3c2CCC3)CC1
→ ?	?	·	-1%[15.4 µM]	-1	-1	?
Cc1cc2cc(CNC(=O)NC3CCCCC3)ccc2[nH]1
→ -3.4%	-15%	-4.5	-2%	12	12	6%
CC1(C)NC(=O)N(CC(=O)Nc2cc(C(F)(F)F)cc(C(F)(F)F)c2)C1=O
→ 2.0%	-6%	·	9%	2	6	26%
O=C(CSc1ccc(Cl)cc1)Nc1ccccc1Oc1ccccc1
→ 0.1%	-1%	4.3	-19%	7	-7	3%
C#CCOCCOCCOCCNc1nc(N2CCN(C(=O)CCCCCCCCCCNC(=O)Cn3cc(C[C@@H](C)O)nn3)CC2)nc(N2CCN(C(=O)CCCCCCCCCCNC(=O)[C@@H](CCSC)n3cc(CCO)nn3)CC2)n1
→ 1.5%	-5%	·	·	19	-1	·
Cc1cc(C)n(C(=O)C(C)N2C(=O)c3ccccc3C2=O)n1 (configuration not stated)
→ 0.3%	-10%	-0.1	-8%	-4	4	13%
COc1cc(NC(=S)NC2CC(C)(C)NC(C)(C)C2)c(OC)cc1Cl
→ -0.8%	6%	2.2	-78%	-30	-12	8%
COc1ccccc1CNC(=O)c1ccc(S(=O)(=O)N(C)C)cc1
→ -1.9%	2%	2.2	12%	-9	-24	11%
CC1CC(C)CN(C(=O)CNC(=O)Cn2ccc3ccccc3c2=O)C1 (configuration not stated)
→ ·	4%	-2.1	-30%	6	9	8%

Next section (2 carried over from the part before).
Sequence of screens: ClpP mod	gsp antag	Menin-MLL FL inh	gsp agonist	TRPV1 potentiator	CtBP-E1A blk	Sfp PPTase inh
COc1ccccc1CNC(=O)c1ccc(S(=O)(=O)N(C)C)cc1
→ -1.9%	2%	2.2	12%	-9	-24	11%
CC1CC(C)CN(C(=O)CNC(=O)Cn2ccc3ccccc3c2=O)C1 (configuration not stated)
→ ·	4%	-2.1	-30%	6	9	8%
Cc1ccc(S(=O)(=O)n2cnc3cc([N+](=O)[O-])ccc32)c(C)c1
→ 0.4%	4%	-1.4	-40%[inhibitor]	3	6	15%
CC(=O)c1cccc(S(=O)(=O)N(C)C2CCN(C)CC2)c1
→ ·	10%	0.3	1%	-10	1	17%
COc1ccc(-n2ccn(CC(=O)Nc3ccccc3OC)c(=O)c2=O)cc1
→ -3.7%	6%	-4.0	?	0	-13	-1%
CN1CCN(c2nc3c(c(=O)n(C)c(=O)n3C)n2Cc2ccccc2)CC1
→ -3.2%	-6%	4.5	?	19	-1	7%
Cc1cc(N)nc(C)c1C#N
→ -2.7%	11%	0.1	-14%	0	·	12%
CCC(Sc1nnc(-c2ccc(C)c(Cl)c2)n1CC)C(=O)Nc1nccs1 (configuration not stated)
→ -4.4%	?	1.7	8%	0	-13	6%
CCOC(=O)Cn1cc(C=O)c2ccccc21
→ 0.4%	11%	0.8	-42%[inhibitor]	2	5	21%
O=C(CCCc1ccccc1)NCCN1CCOCC1
→ -2.3%	11%	-0.6	-7%	10	10	17%
Cn1nc(CC(=O)NCc2ccc(F)cc2)c2ccccc2c1=O
→ -0.6%	-5%	1.3	5%	29	-1	13%
Cc1ccc(NC(=O)C2CCC(CNC(=O)[C@@H]3Cc4ccccc4CN3)CC2)cc1 (some centres not stated)
→ -2.1%	-2%	·	13%	28	·	0%
CCN1C(=O)C2(C(C(=O)c3cc4ccccc4o3)=C(O)C(=O)N2CCCN2CCOCC2)c2ccccc21 (configuration not stated)
→ 0.7%	20%	14	106%[15.4 µM]	?	-2	19%
C[C@@H]1COC(=O)[C@H](NC(=O)OCC2c3ccccc3-c3ccccc32)C/C=C\C[C@@H](CC(=O)N[C@@H](CO)Cc2ccccc2)C(=O)N1
→ -1.7%	4%	·	0%	·	3	·
CCNC(=S)Nc1cc(C(=O)N2CCCC2)ccc1N1CCCC1
→ -2.9%	-9%	-2.9	?	7	-8	1%
O=C(Nc1ccc2snnc2c1)N1CCCCC1
→ ·	-10%	7.3	2%[15.4 µM]	-23	0	4%
COc1ccc(Cl)cc1NC(=O)CCc1ccccc1
→ -0.7%	4%	2.1	-6%	27	17	-9%
C=CCn1c(SCC(=O)c2cccs2)nc2sc(CC)cc2c1=O
→ -2.0%	?	2.9	25%	8	0	-3%
CC(=O)c1ccc(NC(=O)c2cccc(N3C(=O)c4ccccc4C3=O)c2)cc1
→ -1.9%	9%	2.6	-81%[inhibitor]	6	-5	4%
O=C(COc1ccc(Br)cc1Cl)N1CCN(c2ncccn2)CC1
→ -22%	-3%	·	16%	?	-1	·
Cc1cc(C)nc(NS(=O)(=O)c2ccc(NC(=O)c3ccc4c(c3)OCO4)cc2)n1
→ -1.2%	-6%	-2.0	2%	2	-5	3%
Clc1ccc(CN2C3=NCCCN3c3ccccc32)c(Cl)c1
→ 1.6%	5%	4.6	-11%	6	2	5%
COc1ccccc1C(=O)NCCC(=O)NCCCSc1ccccc1
→ 22%	-3%	·	-34%[inhibitor]	9	-15	·
COC(=O)C1=C(C)NC(=O)NC1/C=C/c1ccccc1 (configuration not stated)
→ -0.3%	-1%	-2.4	-11%	-8	-2	6%
O=c1[nH]c2cccnc2n1-c1ccc([N+](=O)[O-])cc1
→ -4.0%	-2%	0.9	?	-2	-13	-1%
Cc1cccc(-n2nc3c(c2NC(=O)CCC2CCCCC2)CS(=O)C3)c1C (configuration not stated)
→ 0.3%	5%	-0.1	18%	4	-1	9%
COc1ccc(C[C@H]2CN3C(=NC[C@@H]3C(C)C)N2CCNC(=O)c2ccc(C)c(Br)c2)cc1
→ -1.1%	7%	-3.6	-25%	-7	·	4%
CN1C(=O)C(CC(=O)Nc2ccccc2F)N(NC(=O)c2ccc(Br)cc2)C1=S (configuration not stated)
→ ·	0%	4.8	-11%	7	23	17%
O=C(NC(=S)N1CCCc2ccccc21)c1ccccc1
→ -8.9%	-23%	-0.5	-1%	-1	-16	-1%
COc1ccc(NC(=O)COc2ccc(/C=C/c3cccc[n+]3C)cc2OC)cc1
→ ·	-2%	·	20%	1	6	10%
O=S(=O)(c1ccc(S(=O)(=O)N2CCN(C3CCCCC3)CC2)cc1)N1CCCCCC1
→ 0.1%	6%	35[activator]	-9%	9	8	4%
Cc1cc(CNCCN(C)C)c(C)n1-c1cc(S(=O)(=O)N2CCOCC2)ccc1N1CCCC1
→ -24%	-1%	·	-5%	·	14	·
CCNc1ccccc(-c2ccc3ccccc3n2)c1=O
→ 0.7%	7%	?	-4%	-12	-15	?
CC1CCN(C(=O)c2cc3nc(C4CC4)cc(C(F)(F)F)n3n2)CC1
→ -5.2%	0%	-2.1	0%	-16	-1	4%

Screening results as filed in PubChem.
